Screening data as filed in PubChem BioAssay.
Mtb H37Rv – Mycobacterium tuberculosis H37Rv growth inhibition, cell based, confirmatory dose response (AID 1949). inhibition, % at 10 µg/mL, or IC50 in µg/mL where a hit was titrated. most inactive calls were filed without a number and no value below 0 was filed. 100,000 tested, 1.6% active;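 active = confirmed in a dose series; inconclusive = about 50% or more but not retested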;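 also: bacteria grown 7 days with compound before Alamar blue readout; 0% = untreated bacteria and 100% = reference antibiotic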
The depositor's hits bear a star; i = inactive; ? = inconclusive.

SMILES | Mtb H37Rv
N#CC1=C(N)Oc2nc[nH]c(=O)c2C1c1cccc(F)c1 (stereo not given) | i
CC(C)CC(NC(=O)c1c(F)c(F)c(F)c(F)c1F)c1ccccc1 (stereo not given) | i
OC(COc1ccccc1F)Cn1cnc2ccccc21 (stereo not given) | 6%
COc1cc(CNc2ccccc2)c(Cl)cc1OC(C)C | i
O=C(O)Cc1ccc(NC(=O)Nc2ccc(Cl)cc2Cl)cc1 | i
CC(=O)Oc1cccc(C(=O)N2CCC(C)CC2)c1 | i
Cc1ccc(N2C(=O)NC(=O)/C(=C/c3ccc(C(=O)O)cc3)C2=O)cc1 | i
Cc1ccc(NS(=O)(=O)c2ccc(NC(=O)c3ccco3)cc2)cc1 | i
Cc1cc(NC(=O)c2oc3c(c2C)C(=O)CC(C)(C)C3)no1 | 1%
O=C(c1cc(-c2cccc(Cl)c2)nc2ccccc12)N1CCCC1 | 3%
Nc1nnc(SCc2ccc(F)c3ccccc23)s1 | i
COc1ccc(CSCC(=O)Nc2cccc(Cl)c2Cl)cc1 | i
Clc1ccc2c(N3CCOCC3)ccnc2c1 | 0%
CCOc1ccc(CC(C(N)=O)C(N)=O)cc1 | i
C=C(C)CC(Nc1ccccc1F)c1ccco1 (stereo not given) | 0%
CCOC(=O)C1CCN(C(=O)Nc2ccc(OC)c(OC)c2)CC1 | i
CCSc1nnc(NC(=O)c2oc3ccc(CC)cc3c2C)s1 | i
CCOC(=O)C1=C(C)NC(=O)C1(NC(=O)c1cccnc1)C(F)(F)F (stereo not given) | i
COc1ccc(C)cc1S(=O)(=O)N(C)CC(=O)N1CCN(C)CC1 | i
COC(=O)c1ccc(CSc2nncn2N)o1 | i
S=C(c1ccc(Br)cc1)N1CCN(Cc2ccccc2)CC1 | 1%
FC(F)(F)c1cccc(NC(=S)NCc2ccccn2)c1 | i
Nc1ncc2c(n1)CC(c1ccc(Cl)cc1)CC2=O (stereo not given) | i
CC1CC(C)CN(C(=O)C(C)Oc2ccc(Cl)cc2Cl)C1 (stereo not given) | i
CCOC(=O)c1cc(=O)n2[nH]c(-c3ccc(-c4ccccc4)cc3)cc2n1 | i
O=C(NS(=O)(=O)c1ccc(Cl)cc1)c1ccccc1Cl | i
OC(COc1ccccc1)CN1CCC(Cc2ccccc2)CC1 (stereo not given) | 6%
Cn1c(SCC(=O)c2ccc3c(c2)OCO3)nnc1-c1ccccn1 | 4%
CCOc1ccc(N2C(=O)CC(=O)NC2=S)cc1 | i
CCOc1ccccc1NC(=O)CSc1nnc(C)s1 | i

A different layout for 19 compounds above:
SMILES,Mtb H37Rv
O=C(c1cc(-c2cccc(Cl)c2)nc2ccccc12)N1CCCC1,3%
Nc1nnc(SCc2ccc(F)c3ccccc23)s1,i
COc1ccc(CSCC(=O)Nc2cccc(Cl)c2Cl)cc1,i
Clc1ccc2c(N3CCOCC3)ccnc2c1,0%
CCOc1ccc(CC(C(N)=O)C(N)=O)cc1,i
C=C(C)CC(Nc1ccccc1F)c1ccco1 (stereo not given),0%
CCOC(=O)C1CCN(C(=O)Nc2ccc(OC)c(OC)c2)CC1,i
CCSc1nnc(NC(=O)c2oc3ccc(CC)cc3c2C)s1,i
CCOC(=O)C1=C(C)NC(=O)C1(NC(=O)c1cccnc1)C(F)(F)F (stereo not given),i
COc1ccc(C)cc1S(=O)(=O)N(C)CC(=O)N1CCN(C)CC1,i
COC(=O)c1ccc(CSc2nncn2N)o1,i
S=C(c1ccc(Br)cc1)N1CCN(Cc2ccccc2)CC1,1%
FC(F)(F)c1cccc(NC(=S)NCc2ccccn2)c1,i
Nc1ncc2c(n1)CC(c1ccc(Cl)cc1)CC2=O (stereo not given),i
CC1CC(C)CN(C(=O)C(C)Oc2ccc(Cl)cc2Cl)C1 (stereo not given),i
CCOC(=O)c1cc(=O)n2[nH]c(-c3ccc(-c4ccccc4)cc3)cc2n1,i
O=C(NS(=O)(=O)c1ccc(Cl)cc1)c1ccccc1Cl,i
OC(COc1ccccc1)CN1CCC(Cc2ccccc2)CC1 (stereo not given),6%
Cn1c(SCC(=O)c2ccc3c(c2)OCO3)nnc1-c1ccccn1,4%

(next part)
SMILES | Mtb H37Rv
Cc1cc2ncn(C(=O)C(Cl)Cl)c2cc1C | i
COc1ccc(C(=O)NC(=S)NCC2CCCO2)cc1I (stereo not given) | i
Cc1nnc2sc(-c3ccccc3NC(=S)NC(=O)CC34CC5CC(CC(C5)C3)C4)nn12 | i
CCN(CC)C(=O)CSc1nc2c(c(=O)n(C)c(=O)n2C)n1Cc1ccccc1C | i
CC(=O)c1cccc(N(CC(=O)Nc2cc(C(F)(F)F)ccc2Cl)S(C)(=O)=O)c1 | i
O=S(=O)(c1ccc(Oc2ccccc2Cl)cc1)N1CCCCC1 | i
CCCc1nc2ccccc2c2nc(N)nn12 | i
O=c1c(Oc2cnn(-c3ccccc3)c2)c(C(F)(F)F)oc2c3c(ccc12)OCO3 | i
C=CCn1c(Cc2ccc(OCC)cc2)nnc1SCC(N)=O | i
COc1ccccc1NC(=O)c1ccccc1F | 1%
Cc1cc(Br)cc(C)c1NC(=O)CSc1nnc(COc2ccccc2Cl)o1 | i
C=CCc1ccccc1OCCCCNCCCOC | i
Cc1sc2nc(SCC(=O)Nc3ccccc3F)n(-c3ccccc3)c(=O)c2c1C | i
CCOc1ccc(NC(=S)NCc2ccc(OC)cc2)cc1 | 7%
Cc1ccc(S(=O)(=O)N(CC(=O)Nc2ccccc2C(F)(F)F)Cc2cccc(C)c2)cc1 | 12%
CCn1c(CSCc2ccccc2)nnc1SCC(=O)Nc1ccc(C)cc1 | 3%
COCCNS(=O)(=O)c1cc(Cl)ccc1Cl | i
Cc1cc(C(=O)Nc2sc3c(c2C#N)CCCCC3)cs1 | 1%
O=C(CN1C(=O)c2ccccc2C1=O)Nc1nc2ccc([N+](=O)[O-])cc2s1 | i
COc1ccccc1NC(=O)CN(c1cccc(C(F)(F)F)c1)S(=O)(=O)c1ccc(C)cc1 | i
COc1ccc(NC(=O)CN2C(=O)c3ccc([N+](=O)[O-])cc3C2=O)c(OC)c1 | i
Clc1cc(Br)ccc1OCCCN1CCCCC1 | i
COc1cc(C2C(C(=O)N3CCCCC3)=C(C)NC3=C2C(=O)CCC3)ccc1OCc1ccccc1 (stereo not given) | i
COc1ccc(Cl)cc1NC(=O)C(Cc1ccccc1)N1C(=O)C2C3CCC(C3)C2C1=O (stereo not given) | i
CC(C)(C)C(=O)Nc1cccc(-c2nc3ncccc3o2)c1 | i
O=C(Nc1nc2ccccc2s1)c1ccc(S(=O)(=O)N2CCCCCC2)cc1 | i
OCCN1CCN(CC#CCn2c3ccccc3c3ccccc32)CC1 | i
COC(=O)c1ccc(NC(=O)c2cc3ccccc3o2)cc1 | i
COc1cc(Br)c(CCNC(=O)c2ccco2)cc1OC | 6%
O=C(CN1C(=O)c2cccc3cccc1c23)Nc1ccccc1-c1ccccc1 | i
CCCCC(=O)NC(c1ccc2c(c1)OCO2)c1cc([N+](=O)[O-])c2cccnc2c1O (stereo not given) | i
Cc1c(NC(=O)c2cncc(Br)c2)cccc1-c1nc2ccccc2s1 | i
O=C(CCSc1ccccc1)Nc1nc2c(s1)CCCC2 | 36%
CCCCc1ccc(NC(=O)CN(C)S(=O)(=O)c2ccc(F)cc2)cc1 | i
CCN(CC)S(=O)(=O)c1cccc(C(=O)NCCN(C)C)c1 | 2%
O=C(c1ccc(COc2ccccc2Cl)o1)N1CCN(c2ccccc2)CC1 | 7%
Cc1ccc(NS(=O)(=O)c2ccc(NC(=O)c3ccc(F)cc3)cc2)cc1 | i
Cc1c(NC(=S)NC(=O)c2ccccc2Br)cccc1[N+](=O)[O-] | 2%
Cc1cc(=O)oc2cc(OCC(=O)c3ccc4c(c3)OCO4)ccc12 | i
CC(C)c1ccc(C(=O)Nc2ccc([N+](=O)[O-])cc2Cl)cc1 | i
COc1cc(NC(=O)c2cc(Cl)cc(Cl)c2OC)ccc1NC(=O)C(C)C | i
CC(=O)c1c(C)oc2c1cc(NS(=O)(=O)c1ccc(F)cc1C)c1ccccc12 | i
COc1ccc(NS(=O)(=O)c2ccc(NS(=O)(=O)c3ccc(Br)s3)cc2)c(OC)c1 | i
Cc1nn(C2CC(=O)N(c3ccc(Cl)cc3)C2=O)c(C)c1C (stereo not given) | i
O=C(COc1cccc2ccccc12)NNC(=O)NC12CC3CC(CC(C3)C1)C2 | 1%
C=CCSc1nnc(CSc2nc3ccccc3c(=O)n2CC=C)n1-c1ccccc1 | 1%
CCCCNCCOCCOc1ccc(Br)cc1Cl | 29%
Cc1cc(OCC(=O)NCc2cccnc2)cc(C)c1Br | i
Nc1c(C(=O)Nc2ccc(Cl)cc2)sc2nc3c(cc12)CCC3 | i
COc1c(Cl)ccc(Cl)c1C(=O)NCc1ccccc1 | i
O=Cc1cn(CC(=O)Nc2ccc(F)c(Cl)c2)c2ccccc12 | i
O=C(O)C1CCCCC1C(=O)Nc1ccc(-c2ccccc2)cc1 (stereo not given) | i
Cc1ccc(NC(=O)c2ccc([N+](=O)[O-])cc2NC(=O)c2ccccc2)c(C)c1 | i
CC(=O)N/C(=N\OCc1ccc(Br)cc1)c1nonc1NC(C)=O | 6%
CC12COC3(C(=O)NCCc4ccccc4)CC1CCC32C (stereo not given) | i
COC(=O)c1c(NC(=O)c2c(-c3ccccc3Cl)noc2C)sc2c1CCC2 | 1%
Cc1ccc(N(Cc2ccc(C(=O)Nc3ccccc3-c3ccccc3)cc2)S(C)(=O)=O)cc1C | i
O=c1[nH]cnc2scc(-c3ccc(Cl)cc3)c12 | i
Cc1ccccc1Cn1cnc2sc(-c3ccccc3)cc2c1=O | i
CC1CCN(C(=O)CN(Cc2ccc(Cl)cc2)S(=O)(=O)c2ccc(Br)cc2)CC1 | 6%

Brought forward from above: 2 compounds, then new ones.
SMILES | Mtb H37Rv
Cc1ccccc1Cn1cnc2sc(-c3ccccc3)cc2c1=O | i
CC1CCN(C(=O)CN(Cc2ccc(Cl)cc2)S(=O)(=O)c2ccc(Br)cc2)CC1 | 6%
O=S(=O)(NCCSc1ccccc1)c1ccccc1 | i
Cc1cc(OCC(=O)Nc2sc(C)c(C)c2C(N)=O)ccc1Br | 10%
O=C(CN(Cc1ccc(Cl)cc1)S(=O)(=O)c1ccccc1)NC1CCCCC1 | i
COC(=O)CN(c1cc(Cl)ccc1OC)S(=O)(=O)c1ccccc1 | 0%
COc1ccc(OCc2nc(-c3ccc(OC)cc3)no2)cc1 | 11%
CS(=O)(=O)N(CC(=O)NCCSCc1ccccc1Cl)c1cc(Cl)ccc1Cl | i
O=C(CSc1ccccc1)Nc1ccccc1N1CCOCC1 | i
CCCc1cc(C(=O)OC)c(NC(=O)c2cccc(OCC)c2)s1 | i
O=C(CN(c1ccc(F)cc1)S(=O)(=O)c1ccc2c(c1)OCCO2)Nc1cccnc1 | i
CCc1cccc(NC(=O)c2cnn3c(C(F)F)cc(-c4ccccc4)nc23)c1 | i
CC1(C)Cc2c(C#N)c(SCCO)nc(N3CCOCC3)c2CO1 | i
COc1ccc(CCNC(=O)C(C)Oc2cccc(C)c2C)cc1OC (stereo not given) | 1%
Cc1ccc(SCCc2ccncc2)cc1 | i
O=C(CSc1ccc(Cl)cc1)NCc1ccncc1 | i
COc1ccc(Cl)cc1N(CC(=O)NCCC1=CCCCC1)S(C)(=O)=O | i
CC(=O)c1ccc(OC(=O)c2cccc([N+](=O)[O-])c2)cc1 | i
S=c1[nH]nc2nc(-c3ccccc3)c(-c3ccccc3)nn12 | 1%
CCc1ccccc1NC(=S)NC(=O)c1ccc(C)cc1 | i
CCOC(=O)CCCCC(=O)c1[nH]c(=O)[nH]c1Cn1cnc2ccccc21 | i
N#CCCn1cc(C=O)c(-c2ccc(Br)cc2)n1 | i
N#CCCn1cc(C(N)=O)c(-c2cc3ccccc3o2)n1 | i
O=C(Nc1ccc(S(=O)(=O)N2CCCC2)cc1)c1cccc([N+](=O)[O-])c1 | 0%
COc1ccc(C(=O)O)cc1NC(=S)NC(=O)c1cc(OC)c(OC)c(OC)c1 | i
COC(=O)CNC(=S)NC(=O)c1ccc(C(C)(C)C)cc1 | ?
CCOc1ccc(-n2c(C)cc(C=O)c2C)cc1 | i
CC(C)c1ccc(N(CC(=O)N2CCN(Cc3ccccc3)CC2)S(C)(=O)=O)cc1 | i
O=C(NCCN1CCOCC1)c1ccc2c(=O)n(CCC3=CCCCC3)c(=S)[nH]c2c1 | 1%
N#Cc1c(-c2ccccc2)cc(-c2ccccc2)nc1SC1CCCCC1=O (stereo not given) | 16%
Fc1ccc(NC2CCN(C(=S)NCc3cccs3)CC2)cc1 | i
O=C(Nc1ccc2[nH]c(=O)[nH]c2c1)c1ccc(-c2ccc(Cl)cc2)o1 | i
O=C(Nc1ccccc1Cl)c1ccc(Br)c(S(=O)(=O)N2CCCCCC2)c1 | i
COc1cccc(C(C)NC(=O)c2sc3cc(Cl)ccc3c2Cl)c1 (stereo not given) | 4%
Cc1ccc2c(c1)sc1nc(-c3ccccc3)cn12 | i
Cn1c(Cc2cccs2)n[nH]c1=S | i
O=C(CSc1n[nH]c(-c2ccccc2)n1)N1CCCC1 | i
CCCCC(=O)Nc1ccc(C)cc1OC | 4%
Cc1ccc(C(=O)Cn2cnc3ccccc3c2=O)cc1C | i
CCCC(=O)Nc1sc(C)c(C)c1C(N)=O | 14%
COc1ccc(N(CC(=O)NC(C)c2ccccc2)S(=O)(=O)c2ccc(F)cc2)cc1 (stereo not given) | i
CCOC(=O)c1c(NC(=O)c2ccncc2)sc(C(=O)OC(C)(C)C)c1C | i
CCOC(=O)C1=C(C)NC(=S)NC1c1ccc(OCC(=O)NCc2ccccc2)c(OC)c1 (stereo not given) | i
O=C(CN(c1ccc(F)cc1)S(=O)(=O)c1ccc2c(c1)OCCO2)Nc1ccccc1Br | 13%
CCOC(=O)Nc1nnc(Cc2cccc(Br)c2)s1 | i
CCOc1ccc2nc(SC(CC)C(=O)Nc3cc(C)on3)sc2c1 (stereo not given) | 4%
O=S(=O)(N1CCOCC1)N1CCN(CC(O)COc2ccc(-c3ccccc3)cc2)CC1 (stereo not given) | i
O=S(=O)(Nc1ncccn1)c1ccc(NC(=S)Nc2ccc3c(c2)CCC3)cc1 | i
Cc1cc(NC(=O)C23CCC(C)(C(=O)C2)C3(C)C)no1 (stereo not given) | i

The list is partial (hit frequency here may not be typical).
